# nsP2pro primary: Primary qHTS for inhibitors of NSP2Pro chikungunya virus (CHIKV) | Polyprotein P1234 (Chikungunya virus (strain S27-African prototype)), Q8JUX6 | FRET peptide cleavage, nsP2pro, fluorescence 1 h | Potency, µM (series often up to 24.9 µM), inactives show at the top dose activity change, negative = inhibition, hits mostly inhibitors | 31,000 tested, 1.1% active | AID 1964107, 2024; active means well fitted inhibition curve with a large enough effect; inconclusive means small, poorly fitted or top-dose-only effect; inactive means no such curve, though single readings can be large or run the other way; note: nearly all actives have a fitted effect of over 60% in size; a reference inhibitor and vehicle were the controls
# Target sequence (Q8JUX6 whole entry, looked up): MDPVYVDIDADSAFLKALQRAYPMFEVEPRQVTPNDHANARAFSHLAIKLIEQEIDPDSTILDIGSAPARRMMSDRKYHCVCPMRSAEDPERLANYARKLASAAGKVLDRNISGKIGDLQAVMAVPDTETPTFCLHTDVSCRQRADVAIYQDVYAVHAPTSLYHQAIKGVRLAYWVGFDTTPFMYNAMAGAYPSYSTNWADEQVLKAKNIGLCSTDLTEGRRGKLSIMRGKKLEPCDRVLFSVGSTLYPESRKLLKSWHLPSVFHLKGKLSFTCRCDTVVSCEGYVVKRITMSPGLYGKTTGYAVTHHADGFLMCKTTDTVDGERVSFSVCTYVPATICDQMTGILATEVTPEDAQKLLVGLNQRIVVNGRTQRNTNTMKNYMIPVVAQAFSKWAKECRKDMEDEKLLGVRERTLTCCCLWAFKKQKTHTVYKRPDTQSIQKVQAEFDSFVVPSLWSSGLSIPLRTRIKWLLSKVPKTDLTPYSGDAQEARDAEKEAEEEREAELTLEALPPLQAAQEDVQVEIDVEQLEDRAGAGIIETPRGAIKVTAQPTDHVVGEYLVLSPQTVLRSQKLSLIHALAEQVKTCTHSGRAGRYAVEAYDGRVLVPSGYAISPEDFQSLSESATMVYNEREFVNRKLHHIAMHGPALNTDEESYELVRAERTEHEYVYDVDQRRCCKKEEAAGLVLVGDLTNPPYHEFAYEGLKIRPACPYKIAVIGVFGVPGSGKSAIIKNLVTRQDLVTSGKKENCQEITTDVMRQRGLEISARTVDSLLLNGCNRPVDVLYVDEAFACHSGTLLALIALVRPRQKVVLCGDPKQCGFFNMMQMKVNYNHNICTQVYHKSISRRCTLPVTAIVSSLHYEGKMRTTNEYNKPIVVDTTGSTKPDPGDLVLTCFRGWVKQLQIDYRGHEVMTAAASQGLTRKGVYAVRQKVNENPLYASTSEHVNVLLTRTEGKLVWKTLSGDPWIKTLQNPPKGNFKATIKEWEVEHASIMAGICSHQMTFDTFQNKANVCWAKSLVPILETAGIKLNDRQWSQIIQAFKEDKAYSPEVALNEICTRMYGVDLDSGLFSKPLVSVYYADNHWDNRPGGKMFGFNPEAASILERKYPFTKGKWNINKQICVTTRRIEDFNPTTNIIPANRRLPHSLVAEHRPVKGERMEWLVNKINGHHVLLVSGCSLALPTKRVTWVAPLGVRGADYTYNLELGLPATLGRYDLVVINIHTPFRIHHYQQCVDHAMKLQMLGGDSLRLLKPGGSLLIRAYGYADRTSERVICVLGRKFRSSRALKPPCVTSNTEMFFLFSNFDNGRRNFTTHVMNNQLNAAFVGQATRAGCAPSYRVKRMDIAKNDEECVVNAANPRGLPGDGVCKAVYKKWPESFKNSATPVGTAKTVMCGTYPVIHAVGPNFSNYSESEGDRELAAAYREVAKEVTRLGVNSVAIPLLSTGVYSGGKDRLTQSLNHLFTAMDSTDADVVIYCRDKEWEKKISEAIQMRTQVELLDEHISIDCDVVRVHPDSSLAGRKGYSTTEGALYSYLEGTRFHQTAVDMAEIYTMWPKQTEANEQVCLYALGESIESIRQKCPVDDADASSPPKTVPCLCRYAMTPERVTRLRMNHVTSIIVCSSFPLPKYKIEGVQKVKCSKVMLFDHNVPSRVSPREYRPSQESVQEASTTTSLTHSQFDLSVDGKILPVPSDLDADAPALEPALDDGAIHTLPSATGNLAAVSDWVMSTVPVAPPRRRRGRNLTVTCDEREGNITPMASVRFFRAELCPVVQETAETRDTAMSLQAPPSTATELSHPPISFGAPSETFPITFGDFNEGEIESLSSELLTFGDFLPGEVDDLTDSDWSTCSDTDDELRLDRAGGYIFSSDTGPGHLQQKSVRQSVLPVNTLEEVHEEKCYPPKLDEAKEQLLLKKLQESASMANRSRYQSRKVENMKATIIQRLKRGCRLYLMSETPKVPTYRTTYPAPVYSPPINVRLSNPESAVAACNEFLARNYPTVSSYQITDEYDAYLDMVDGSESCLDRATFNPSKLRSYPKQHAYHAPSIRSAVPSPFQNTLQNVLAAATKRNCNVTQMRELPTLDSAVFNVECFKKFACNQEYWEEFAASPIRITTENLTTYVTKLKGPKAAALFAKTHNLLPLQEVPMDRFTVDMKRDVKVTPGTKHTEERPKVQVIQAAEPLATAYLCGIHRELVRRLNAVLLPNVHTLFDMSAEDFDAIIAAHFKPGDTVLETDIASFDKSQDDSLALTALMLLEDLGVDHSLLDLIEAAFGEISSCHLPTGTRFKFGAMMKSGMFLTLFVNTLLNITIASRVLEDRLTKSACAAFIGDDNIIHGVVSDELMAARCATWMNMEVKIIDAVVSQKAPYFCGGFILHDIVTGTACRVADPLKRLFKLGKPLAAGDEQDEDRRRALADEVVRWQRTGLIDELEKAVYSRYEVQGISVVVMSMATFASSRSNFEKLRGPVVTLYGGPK
# Active calls of the source: *; i = inactive; ? = inconclusive; & = joins results of further samples; [ ] = remark or other dose. % is set by controls: 0 for no effect and ±100 for the full control effect; potency is the fitted concentration of half-maximal effect. An excerpt; the hit share may differ from the screen's.
SMILES,nsP2pro primary
Cc1ccn2c(Nc3ccc4c(c3)OCO4)c(-c3ccc(Cl)cc3)nc2c1,-10%
Cc1cc(C(=O)N[C@@H]2CCC[C@@H](C(=O)N(C)Cc3cccnc3)CC(=O)N(C)C2)no1,3%[39.2 µM]
CCN(C1CCOCC1)C1CN(C(=O)c2ccccn2)C1,?
O=S(=O)(C1CC1)N1CCn2c(nnc2-c2cncc(Br)c2)C1,-16%
CNc1nc2c(s1)C[C@]1(C)CCC([C@H](C)C(=O)N3CCSCC3)[C@H](O)[C@H]1[C@@H]2C (stereo partly specified),-3%[39.2 µM]
CC(C)(O/N=C(\C(=O)N[C@@H]1C(=O)N2C(C(=O)[O-])=C(C[N+]3(CCNC(=O)c4ccc(O)c(O)c4Cl)CCCC3)CS[C@H]12)c1csc(N)n1)C(=O)O,-28%
Cc1cc(CN2CCc3nn(C)c(=O)n3CC2)n(C)n1,-10%
Oc1c(C(c2cccc(Br)c2)N2CCCC2)sc2nc(-c3ccco3)nn12 (stereo unspecified),-19%
COc1ncccc1-c1cc(-c2cn[nH]c2)c2cncn2c1,i
OC[C@@]1(O)CO[C@@H](OC[C@H]2O[C@@H](OCc3ccccc3)[C@H](O)[C@@H](O)[C@@H]2O)[C@@H]1O,?
CN(C)C(=O)C1=NOC2CN(C(=O)C3CC3)CC12 (stereo unspecified),-16%[39.2 µM]
CC(=O)N(O)CCCCCN1C(=O)CCC1=O,?
O=C1C[C@@H]2CCN(C(=O)C3CC3)C[C@@H]2CCN1Cc1ccc2c(c1)OCO2,10%[39.2 µM]
CCC(C)C(=O)OC1CCC=C2C=CC(C)C(CCC3CC(O)CC(=O)O3)C21 (stereo unspecified),?
COc1ccnc(N2C[C@@H]3OCC(=O)N(CC4CC4)[C@@H]3C2)n1,?
CNC(=O)C1CCC(Cn2c(=O)c3sccc3n(Cc3ccc(F)cc3)c2=O)CC1 (stereo unspecified),-16%
O=C(c1cn[nH]c1-c1ccc(F)cc1)N1CC2CC(C1)[C@H]1CCCC(=O)N1C2 (stereo partly specified),-2%
CSc1ccc(-c2nc3cccc(C)n3c2Nc2ccc(Cl)cc2)cc1,18%
Cc1nc(NC2CCCCC2)c2nc(-c3ccccc3)n(CCCN(C)C)c2n1,1%
CCCn1c2ccccc2c2cnn(CC(=O)NCCCN(Cc3ccccc3)C(C)C)c(=O)c21,13%
COc1ccccc1CNC(=O)CS(=O)Cc1nc(-c2ccc(OC)c(OC)c2)oc1C (stereo unspecified),-20%
CCCCSCc1cc(C(=O)N2CC(C)(C)C(C)(O)C2)oc1C (stereo unspecified),-24%
Cc1nc2scc(C)n2c(=O)c1S(=O)(=O)Nc1ccc(N2CCOCC2)c(Cl)c1,-20%
O=C(c1ccc(-c2ccc(O)cc2)cc1)N1CCOC2(CNCCOC2)C1 (stereo unspecified),i
COc1ccccc1N1CCN(S(=O)(=O)c2ccc3[nH]c4c(c3c2)CCCC4)CC1,-26%

# In another format: results already given.
mol	nsP2pro primary
OC[C@@]1(O)CO[C@@H](OC[C@H]2O[C@@H](OCc3ccccc3)[C@H](O)[C@@H](O)[C@@H]2O)[C@@H]1O	?
CN(C)C(=O)C1=NOC2CN(C(=O)C3CC3)CC12 (stereo unspecified)	-16%[39.2 µM]
CC(=O)N(O)CCCCCN1C(=O)CCC1=O	?
O=C1C[C@@H]2CCN(C(=O)C3CC3)C[C@@H]2CCN1Cc1ccc2c(c1)OCO2	10%[39.2 µM]
CCC(C)C(=O)OC1CCC=C2C=CC(C)C(CCC3CC(O)CC(=O)O3)C21 (stereo unspecified)	?

# In a second layout: results already given.
compound	nsP2pro primary
CNc1nc2c(s1)C[C@]1(C)CCC([C@H](C)C(=O)N3CCSCC3)[C@H](O)[C@H]1[C@@H]2C (stereo partly specified)	-3%[39.2 µM]
CC(C)(O/N=C(\C(=O)N[C@@H]1C(=O)N2C(C(=O)[O-])=C(C[N+]3(CCNC(=O)c4ccc(O)c(O)c4Cl)CCCC3)CS[C@H]12)c1csc(N)n1)C(=O)O	-28%
Cc1cc(CN2CCc3nn(C)c(=O)n3CC2)n(C)n1	-10%

# The main list resumes, repeating the six entries before the break.
SMILES,nsP2pro primary
CCCn1c2ccccc2c2cnn(CC(=O)NCCCN(Cc3ccccc3)C(C)C)c(=O)c21,13%
COc1ccccc1CNC(=O)CS(=O)Cc1nc(-c2ccc(OC)c(OC)c2)oc1C (stereo unspecified),-20%
CCCCSCc1cc(C(=O)N2CC(C)(C)C(C)(O)C2)oc1C (stereo unspecified),-24%
Cc1nc2scc(C)n2c(=O)c1S(=O)(=O)Nc1ccc(N2CCOCC2)c(Cl)c1,-20%
O=C(c1ccc(-c2ccc(O)cc2)cc1)N1CCOC2(CNCCOC2)C1 (stereo unspecified),i
COc1ccccc1N1CCN(S(=O)(=O)c2ccc3[nH]c4c(c3c2)CCCC4)CC1,-26%
CNc1cccnc1OC1CCN(S(=O)(=O)c2ccc3c(c2)CCC3)C1 (stereo unspecified),?
Fc1cc(F)cc(Nc2nc(NC3CCCC3)nc(C3CO3)n2)c1 (stereo unspecified),-1%
Cc1cc(C)n2nc(C(=O)N3CCCC4(CNC(=O)O4)C3)cc2n1 (stereo unspecified),i
Cc1nc(-c2ccc(OC3CCN(C(=O)NC4CCCCC4)C3)cc2)no1 (stereo unspecified),-4%
C=C1C(=O)OC2C(OC(=O)C=C(C)C)C(C)=C3C(=O)C=C(C)C3C(O)C12 (stereo unspecified),?
CCc1nnc2c(N3CCN(c4cc(Cl)ccc4C)CC3)nc3ccccc3n12,-18%
Cc1cnc(CCNS(=O)(=O)c2cn(C)cn2)n1C1CCC1,i
CN(C)C(=O)N1CCCn2nc(CNC(=O)Nc3cccc(C#N)c3)cc2C1,i
Cc1ccc(CN(Cc2ccco2)C(=O)c2oc3cc(Br)ccc3c2C)cc1,-19%
CCCCC(=O)N(C)CC1CCOC1 (stereo unspecified),?
COc1ccc(-c2[nH]ncc2CN2CC[C@H]3CC[C@@H](C2)N3)cc1,i
CCc1c(C)nc2nncn2c1NCc1ccc(OC)cc1,-22%
CCCn1c(C)nc2c(N3CCOCC3)nc(C)nc21,i
Cn1cc(CN2CCOC[C@H](Oc3ccc(S(C)(=O)=O)cc3)C2)c2ccccc21,-2%[39.2 µM]
c1ccc(CC2=NOC3(CCCN(Cc4ccns4)C3)C2)cc1 (stereo unspecified),?
CN(CCOc1cccc(Cl)c1)C(=O)c1cccc(CCC(C)(C)O)c1,4%
COCCc1nncn1C1CCN(C(=O)c2ccc(C)s2)CC1,i
CCOC(=O)c1cc2c(=O)n3ccccc3nc2n(C(C)C)c1=NC(=O)c1c(-c2c(F)cccc2Cl)noc1C,-18%
Cc1cc(C)c(NC(=O)CN2C(=O)c3cccnc3Oc3ccc(Cl)cc32)c(C)c1,-21%
O=C(O)c1ccc(-n2cccc2/C=C2\SC(=O)N(Cc3ccc(F)cc3)C2=O)cc1,i
COC1CC(O[C@H]2CC[C@@]3(C)C(=CC[C@]4(O)C3[C@H](OC(C)=O)[C@@H](OC(=O)c3ccccc3)[C@]3(C)[C@@H](C(C)=O)CC[C@@]34O)C2)OC(C)C1OC1CC(OC)C(OC2CC(OC)C(OC3OC(C)C(OC4OC(CO)C(O)C(O)C4O)C(OC)C3O)C(C)O2)C(C)O1 (stereo partly specified),-5%[5.1 µM]
COCCN(Cc1ccccc1F)Cc1cc2c(cc1OC)OCO2,1%
COC1CC(=O)C23C(=O)NC(CC(C)C)C2C(C)=C(C)C(OO)C3/C=C(\C)CCC(O)C1O (stereo unspecified),-15%[10 µM]
Cc1ccccc1CCN1CCC(CN(C(=O)c2ccoc2C)C2CCCC2)CC1,5%
O=C1CCCCC(CNC(=O)c2ccc3ccccc3n2)N1 (stereo unspecified),i
# More records:
SMILES,nsP2pro primary
COc1nc(C)c(C(=O)NC2CC(c3cc(=O)[nH]c(C)n3)C2)s1 (stereo unspecified),2%
O=C(c1cc(-c2ccncc2)n[nH]1)N1CCC2(CC1)Nc1ccccc1NC2=O,-32%
Cc1ccc(C(N)=O)cc1-c1cc(NCc2cccnc2)nc2[nH]ccc12,-9%
CC(C)CC(NC(=O)c1ccc(=O)[nH]c1)c1nnc2n1CCNCC2 (stereo unspecified),i
C[C@@H]1C[C@@H](O)[C@@]23CO[C@@H](O)[C@@H]2CCC[C@@H]3[C@@]12C[C@@H](c1ccoc1)OC2=O,?
COC(=O)C12C(=O)C(C)=C(O)C1(C)C(C)=CC1C34CCC(OC3=O)C(C)(C)C4CCC12C (stereo unspecified),?
Cc1cccc(-c2[nH]ncc2-c2ccc(F)c(-c3cnn(CCO)c3)c2)n1,29%
COc1cccc(CN2CCCCCCNC(=O)[C@@H]3CCC[C@@H]32)n1,-13%
C/C(=C/CO)CCC1C(C)CCC2C(C)(C)CCCC12C (stereo unspecified),?
Cc1cc(C(=O)N2CC[C@H](NS(=O)(=O)c3cn(C)cn3)C[C@H]2C(=O)N[C@H](Cc2c[nH]c3ccccc23)C(N)=O)n(C)n1,i
CN(Cc1ccccc1)C(=O)c1ccc(S(=O)(=O)Nc2ccccc2)cc1,-1%
Fc1ccc(CNc2nc3ccc(Cl)cc3n3nnnc23)cc1,-25%
Cc1ncc2c(c1CNC(=O)Cc1ccsc1)CCN(C(=O)Cc1ccc(F)c(F)c1)C2,4%
COC(=O)c1ccc2c(c1)/C(=C/c1cc(Br)c(O)c(Br)c1)C(=O)N2,i
COc1ccccc1NC(=O)c1cccc(S(=O)(=O)N2CCCCCC2)c1,-17%
O=C(Cn1c(=O)n(Cc2ccco2)c(=O)c2sc3ccccc3c21)Nc1ccccc1C(F)(F)F,-4%
CC(C)Oc1ccc2c(NC(=O)CN3CCCC3=O)nn(Cc3ccccc3)c2c1,-6%
COc1ccc2nc(S(=O)(=O)Cc3ncc(C)c(OC)c3C)[nH]c2c1,-14%
CC(C)(C)OC(=O)N1CCC(c2c(C(=O)NCCN3CCC(Cc4ccccc4)CC3)cnn2-c2ccc(F)cc2)CC1,15%
CN(C)C(=O)CCC(=O)N1CC[C@@](C)(O)[C@@H](Cc2ccccc2)C1,-3%
COCCN1CC(C(=O)N2CCN(c3ncccc3C#N)CC2)CCC1=O (stereo unspecified),i
Cc1cc(C)n(-c2cccc(CN(C)C(=O)Cn3nnnc3CN3CCOCC3)c2)n1,-5%
CCOc1ccc(/C=C/c2nc(C#N)c(N3CCCCCC3)o2)cc1,-19%
COc1ccc(NS(=O)(=O)c2ccc(-n3cccn3)cc2)cc1OC,-6%
CN(C(=O)Cn1c(=O)n(CCC(=O)NCc2ccc3c(c2)OCO3)c(=O)c2sccc21)c1ccccc1,-8%
# Later entries
SMILES,nsP2pro primary
COc1ccc(C2c3c(nc(CCCc4ccccc4)[nH]c3=O)Oc3ccc4ccccc4c32)cc1OC (stereo unspecified),-1%
CC1CCC2(C(=O)OC3OC(CO)C(O)C(O)C3O)CCC3(C)C(=CCC4C5(C)CCC(O)C(C)(CO)C5CCC43C)C2C1(C)O (stereo unspecified),-5%[10 µM]
COCCN1CC2CN(C(=O)c3ccc(Cc4c(C)noc4C)o3)CC(C1)O2,-15%
N[C@@H]1CCCCN(c2c(F)cc3c(=O)c(C(=O)O)cn(C4CC4)c3c2Cl)C1,18%
CCC1(C)CC(=O)NC(=O)C1,-6%[39.2 µM]
Cc1ccc(-c2nc3c(c(SCC(=O)Nc4cccc(C(=O)O)c4)n2)Cc2cccc(C)c2O3)cc1,i
Cc1[nH]c(=O)c(C#N)cc1-c1ccc2nccn2c1,-30%&-3%
Cc1ccc(CNC(=O)C(=O)NCC(c2ccc3c(c2)OCO3)N2CCOCC2)cc1 (stereo unspecified),-14%
O=C(N1CCOCC1)N1CCN(c2ccc(Cl)cc2)CC1,-1%
O=C(NCc1ccco1)c1ccc2c(c1)N(Cc1c(F)cccc1Cl)C(=O)c1ccccc1S2,?
CSCC(=O)N1CC[C@H](NC(=O)Nc2cccc(SC)c2)[C@H]1C(=O)N[C@H](Cc1ccccc1)C(N)=O,-1%
Cc1cc(C)nc(NC(=S)N2CCN(c3cc(C#N)cc(C#N)c3)CC2)c1,-2%
COc1cccc(Nc2nn3c(=O)c4ccccc4nc3s2)c1,i
CCN(CCCNC(=O)c1ccc(Sc2ccc(C)cc2)c(NC(C)=O)c1)c1cccc(C)c1,-4%
O=C1CC(c2nc(-c3ccc4nc[nH]c4c3)no2)CN1Cc1cccnc1 (stereo unspecified),i
CC(C)[S+](=O)([O-])N1CC2ON=C(C(=O)O)C2C1 (stereo unspecified),-5%[39.2 µM]
CCCOc1cc(N)ccc1C(=O)OCCN(CC)CC,-11%
CCCCn1c(=N)n(CCCOc2ccc(F)cc2)c2ccccc21,-9%
CC(C)c1noc([C@@H]2C[C@H](NC(=O)c3ccc(F)cc3)CN2C)n1,-9%[39.2 µM]
Cc1ccc(S(=O)(=O)N[C@@H](CCCCN)C(=O)CCl)cc1,-24%
Cc1cc(F)ccc1S(=O)(=O)N1C[C@H](C2CC2)[C@@H](N)C1,3%
CCOC(=O)c1cc2c(=O)n3ccccc3nc2n(Cc2ccco2)c1=NC(=O)c1c(F)cccc1Cl,-21%
CC(C)CCC(=O)O[C@H]1CC[C@H]2[C@@H]3CCC4=CC(=O)CC[C@]4(C)[C@H]3CC[C@]12C,-24%
CCOc1ccccc1NC(=O)N1CCCCC1CCn1cc(C(=O)NCC2CC2)nn1 (stereo unspecified),-6%
COc1ccc(CCNC(=O)c2cc3c(=O)n4ccccc4nc3n2C)cc1,-12%
CC(=O)N1CCc2sc(C(=O)NC3CCN(Cc4ccccc4)CC3)cc2C1,1%
COC(=O)c1c(C)cc(OC(=O)c2c(C)cc(OC)cc2OC)cc1O[C@@H]1O[C@H](CO)[C@@H](O)[C@H](O)[C@H]1O,?
CCN(Cc1ccccc1)C(=O)Cn1c(=O)oc2cc(S(=O)(=O)N3CCCCCC3)ccc21,-4%

# Compound activity from PubChem.
